Assay outcomes from PubChem.
eIF4H FP inh: human eIF4H binding inhibitors, primary screen, translation initiation inhibitor project, biochemical, uHTS, fluorescence polarization; inhibition, % at 35 µM; Eukaryotic translation initiation factor 4H (Homo sapiens), Q15056; eIF4H fluorescence polarization binding assay; 290,000 compounds, 0.94% hits;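 active = 50% or more with normal probe brightness, or confirmed in later tests; inconclusive = above 50% with abnormal brightness, or retests that disagree; inactive = below 50% or failed in later tests; about a fifth of its hits are not listed in these tables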;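 note: calls also rest on retests at 20 µM and on dose response follow-up; 0% = protein and probe with vehicle and 100% = probe without protein; strong numbers were not always called active; many hits fall short of the cut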
Rce1 inh: yeast Rce1p protease inhibitors, primary screen, biochemical, fluorescence, cell-free homogeneous; yeast membranes, quenched prenylated peptide cleavage fluorescence; calls only; AID 2563, 2010; 290,000 compounds, 0.27% hits; CAAX prenyl protease 2 (Saccharomyces cerevisiae (strain ATCC 204508 / S288c)), Q03530;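 active = fall in fluorescence gain of 50% or more versus controls, with final raw signal at or below 3038400; inconclusive = same 50% fall but final raw signal above 3038400; inactive = fall in fluorescence gain under 50%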;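 note: plate controls were neutral control wells for no effect and wells lacking membranes for full effect; tested at 10 µM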
MT1-MMP act inh: blockers of MT1-MMP proenzyme processing, primary screen, HT1080 RFP-PRO-GFP cells, GFP/RFP fluorescence | Matrix metalloproteinase-14 (Homo sapiens), P50281 | GFP/RFP ratio fluorescence, overnight; percent of plate control window, DMSO zero | GFP/RFP ratio change, % at 20 µM | 360,000 compounds, 0.061% hits | AID 651647, 2012;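 active = GFP/RFP ratio change of at least 30% with cell ATP level not reduced by more than half and red fluorescence within 50% of control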; note: strong numbers were not always called active
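Test system: HT1080 cells expressing an RFP-PRO-GFP fluorescent reporter construct / Compound dosing: single-point 20 µM compound, 1% DMSO / Schedule: cells overnight before dosing, compound overnight, 37 °C, 5% CO2 / Evaluation: GFP/RFP fluorescence ratio / Control set: DMSO and RFP-L50D-GFP cell wells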
PABP FP inh: PABP poly(A) RNA binding inhibitors, primary screen, biochemical, fluorescence polarization, uHTS; Polyadenylate-binding protein 1 (Homo sapiens), P11940; inhibition, % at 35 µM; 290,000 compounds, 1% hits; AID 2014, 2009;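 active = 50% or more with normal probe brightness, or confirmed in later tests; inconclusive = above 50% with abnormal brightness, or retests that disagree; inactive = below 50% or failed in later tests; about a fifth of its hits are not listed in these tables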;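 note: calls also rest on retests at 20 µM and on dose response follow-up; controls were probe without protein and protein plus probe with vehicle; some compounds called inactive have numbers as strong as hits; many hits fall short of the cut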
Target sequence (P11940 whole entry, looked up): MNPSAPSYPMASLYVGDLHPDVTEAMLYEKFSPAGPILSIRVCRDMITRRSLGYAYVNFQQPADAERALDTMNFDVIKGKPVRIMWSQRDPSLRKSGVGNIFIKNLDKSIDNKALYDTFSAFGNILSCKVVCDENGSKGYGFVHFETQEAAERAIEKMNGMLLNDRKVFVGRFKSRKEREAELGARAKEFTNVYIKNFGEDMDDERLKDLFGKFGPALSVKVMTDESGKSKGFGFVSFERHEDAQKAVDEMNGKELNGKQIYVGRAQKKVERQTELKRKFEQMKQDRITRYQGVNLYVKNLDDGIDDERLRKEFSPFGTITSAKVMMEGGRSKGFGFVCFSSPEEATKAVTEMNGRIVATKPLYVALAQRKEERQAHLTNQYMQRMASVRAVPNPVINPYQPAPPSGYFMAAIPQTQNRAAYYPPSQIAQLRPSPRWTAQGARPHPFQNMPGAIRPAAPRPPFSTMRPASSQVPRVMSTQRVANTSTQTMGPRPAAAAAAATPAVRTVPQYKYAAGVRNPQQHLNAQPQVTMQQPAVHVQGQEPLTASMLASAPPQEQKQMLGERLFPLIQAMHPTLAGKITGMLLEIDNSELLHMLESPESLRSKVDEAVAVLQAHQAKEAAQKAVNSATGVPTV
UUG fidelity: modulators of yeast start codon fidelity, primary screen, whole organism, S. cerevisiae, single point, plate reader; activity score, % at 18.7 µM; 350,000 compounds, 0.13% hits; S. cerevisiae UUG-firefly luciferase reporter, luminescence/redox ratio; AID 602363, 2012;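 active = replicate mean at a twofold rise or more, about +100% in these data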;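 note: firefly luciferase made from a UUG start codon reports start codon fidelity; reporter light over untreated wells divided by growth signal over untreated wells; some hits fall short of that in this replicate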
HIV Env fusion: inhibitors of HIV-1 Env-driven cell-cell fusion, primary screen, HeLa-JRFL effector, CEM21 target cells, luciferase | AID 651610, 2012 | 360,000 compounds, 1.1% hits | inhibition, % at 12.3 µM;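 active = mean replicate inhibition score of at least 50 and every replicate individually at or above 50; inconclusive = only one of the two criteria met; inactive = mean below 50 and not all replicates reaching 50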;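 note: 0% = plate neutral controls and 100% = maraviroc near 300 nM; one replicate is shown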
CSC inhib: cancer stem cell viability inhibitors, primary screen, luminescence; cancer stem cell-like cells viability; inhibition, % at 7.5 µM; 300,000 compounds, 1.1% hits; AID 2717, 2010;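 active = mean at 75% or more and at least half the replicates too; inconclusive = mean and replicates disagree; tested in HMLE shEcad cells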;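 note: 0% = median of negative and 100% = median of positive control wells; the first replicate is given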
PABP FP inh retest: recorded beside PABP FP inh, whose call it bears; inhibition, %; compound at 20 µM; confirmation repeats;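 mean of two retest wells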
MT1-MMP act inh RFP: further read-out of MT1-MMP act inh, marked with its call; RFP signal change, %; measured here: RFP expression control read;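 0 = vehicle wells; hits needed this value within 50% of zero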
The depositor's hits bear a star. The list is partial (hit frequency here may not be typical).

`O=C1NC(=O)C(=Cc2ccc(-c3ccccc3[N+](=O)[O-])o2)C(=O)N1` gave eIF4H FP inh 15, Rce1 inh inactive, MT1-MMP act inh 4, PABP FP inh 40, UUG fidelity -42, HIV Env fusion -53, CSC inhib 20 and MT1-MMP act inh RFP 1.
O=C(CSC1c2ccccc2-c2ccccc21)N/N=C/c1ccc(C(=O)O)cc1 was read as eIF4H FP inh -7, Rce1 inh inactive, MT1-MMP act inh 0, PABP FP inh -1, HIV Env fusion -37, CSC inhib -9 and MT1-MMP act inh RFP 6.
`CC(=O)c1cc(C(C)=O)c(C)[n+](C)c1C` gave eIF4H FP inh 17, Rce1 inh inactive, MT1-MMP act inh 5, PABP FP inh 6, HIV Env fusion -13, CSC inhib -10 and MT1-MMP act inh RFP 7.
`O=C(c1ccc(N2CCCCCC2)c([N+](=O)[O-])c1)N1CCC2(CC1)OCCO2` gave eIF4H FP inh 1, Rce1 inh inactive, MT1-MMP act inh 3, PABP FP inh -6, UUG fidelity 1, HIV Env fusion 9, CSC inhib 41 and MT1-MMP act inh RFP -7.
Screening Cc1ccc(Cn2c(C)c3cnn(CC(=O)N4CCC5(CC4)OCCO5)c(=O)c3c2C)cc1 returned eIF4H FP inh -4, Rce1 inh inactive, MT1-MMP act inh -10, PABP FP inh -7, CSC inhib 0 and MT1-MMP act inh RFP -23.
For CN1CCN(C(=O)COc2ccc(N(C)S(=O)(=O)c3ccc(F)cc3)cc2)CC1 the results were eIF4H FP inh inconclusive, Rce1 inh inactive, MT1-MMP act inh 0, PABP FP inh inconclusive, UUG fidelity -10, HIV Env fusion 2, CSC inhib 2 and MT1-MMP act inh RFP -2.
`CN1C(=O)N(C)C(=O)C2(Cc3cc([N+](=O)[O-])ccc3N3CCN(C(=O)c4ccccc4)CC32)C1=O` (stereo not drawn) gave eIF4H FP inh -12, MT1-MMP act inh 0, PABP FP inh -4, UUG fidelity -1, HIV Env fusion -11, CSC inhib -4 and MT1-MMP act inh RFP 0.
For O=[N+]([O-])c1cccnc1N1CCCNCC1 the results were eIF4H FP inh 15, Rce1 inh inactive, MT1-MMP act inh 0, PABP FP inh -1, UUG fidelity -2, HIV Env fusion -2, CSC inhib 22 and MT1-MMP act inh RFP 3.
For C[C@H](NC(=O)N1C[C@H]2C[C@@H](C1)c1cccc(=O)n1C2)C(=O)Nc1ccc(F)c(F)c1 the results were eIF4H FP inh 16, MT1-MMP act inh 0, PABP FP inh 6, UUG fidelity -9, CSC inhib -7 and MT1-MMP act inh RFP 0.
Screening O=C(COC(=O)Cc1ccccc1)NC(=O)NC1CCCCC1 returned Rce1 inh inactive, MT1-MMP act inh -2, UUG fidelity 0, HIV Env fusion -29, CSC inhib -10 and MT1-MMP act inh RFP 3.
O=C1CC(=O)N(Cc2ccccc2)C(=S)N1 was read as eIF4H FP inh 16, Rce1 inh inactive, MT1-MMP act inh 14, PABP FP inh -5, UUG fidelity -21, HIV Env fusion 6, CSC inhib -6 and MT1-MMP act inh RFP 22.
CC(=O)C1(O)CCC2C3CCC4=C(Cl)C(=O)CCC4(C)C3CCC21C (stereo not drawn) was read as MT1-MMP act inh 5, UUG fidelity -18, HIV Env fusion 17 and MT1-MMP act inh RFP -7.
Screening Cc1ccc2c(c1)C1CN(C)CCC1N2C(=O)c1ccc(Br)o1 (stereo not drawn) returned eIF4H FP inh -10, Rce1 inh inactive, MT1-MMP act inh -2, PABP FP inh -4, UUG fidelity -6, CSC inhib 1 and MT1-MMP act inh RFP 1.
For Nc1nonc1C(=O)N/N=C/c1ccc([N+](=O)[O-])o1 the results were eIF4H FP inh inconclusive, Rce1 inh inactive, MT1-MMP act inh -12, PABP FP inh 34, HIV Env fusion 0 and MT1-MMP act inh RFP -6.
For CC(NCc1ccc(Cl)cc1Cl)C(O)c1ccccc1 (stereo not drawn) the results were eIF4H FP inh -2, Rce1 inh inactive, MT1-MMP act inh 3, PABP FP inh 5, UUG fidelity 8, CSC inhib 0 and MT1-MMP act inh RFP 3.
Screening O=C1C=CC(=O)C=C1 returned MT1-MMP act inh 5, UUG fidelity -11, HIV Env fusion 19 and MT1-MMP act inh RFP 0.
For O=c1[nH]c(=O)n(C2CCCCCC2)c(O)c1C=NCCCN1CCOCC1 the results were eIF4H FP inh -4, Rce1 inh inactive, MT1-MMP act inh 0, PABP FP inh 12, UUG fidelity -11, CSC inhib -4 and MT1-MMP act inh RFP 5.
For C=CCn1c(O)c(/C=C2\C=Nc3ccccc32)c(=O)[nH]c1=O the results were eIF4H FP inh inconclusive, Rce1 inh inactive, MT1-MMP act inh -1, PABP FP inh 58*, UUG fidelity -18, HIV Env fusion -31, CSC inhib -15, PABP FP inh retest 68* and MT1-MMP act inh RFP 3.
CC12Cc3cn[nH]c3C=C1CCC1C2CCC2(C)C1CCC2(C)O (stereo not drawn) was read as MT1-MMP act inh 2, UUG fidelity -24, HIV Env fusion -30 and MT1-MMP act inh RFP -11.
COc1cccc(OCC(=O)N2CCN(C)CC2)c1 was read as eIF4H FP inh 6, Rce1 inh inactive, MT1-MMP act inh 5, PABP FP inh -12, UUG fidelity -12, HIV Env fusion -9, CSC inhib -15 and MT1-MMP act inh RFP 5.
COc1ccc(C(c2nnnn2-c2c(C)cccc2C)N2CCC3(CC2)C(=O)NCN3c2ccccc2)cc1 (stereo not drawn) was read as MT1-MMP act inh -6, UUG fidelity -8, HIV Env fusion 15 and MT1-MMP act inh RFP -12.
`Nc1ncc(P(=S)(N2CCOCC2)N2CCOCC2)s1` gave eIF4H FP inh 0, Rce1 inh inactive, MT1-MMP act inh 4, PABP FP inh 13, UUG fidelity -18, CSC inhib -14 and MT1-MMP act inh RFP 4.
`C=CCN1C(=O)NC(=O)/C(=C/c2ccc(OC)c(COc3ccc(NC(C)=O)cc3)c2)C1=O` gave eIF4H FP inh 50, Rce1 inh inactive, MT1-MMP act inh -1, PABP FP inh 39, HIV Env fusion -64, CSC inhib 11 and MT1-MMP act inh RFP 6.
`CNC(=O)Oc1cccc(-c2cn3cc(Cl)ccc3n2)c1` gave eIF4H FP inh 2, Rce1 inh inactive, MT1-MMP act inh 5, PABP FP inh -1, HIV Env fusion inactive, CSC inhib 16 and MT1-MMP act inh RFP 1.
Cc1ccc(Cn2cc(C=O)c(-c3ccc(C)cc3)n2)cc1 was read as eIF4H FP inh 14, Rce1 inh inactive, MT1-MMP act inh 0, PABP FP inh 6, HIV Env fusion -11, CSC inhib 0 and MT1-MMP act inh RFP -5.
For CCc1ccccc1NC(=O)N1C[C@H]2C[C@@H](C1)c1cccc(=O)n1C2 the results were eIF4H FP inh 2, MT1-MMP act inh 1, PABP FP inh -6, UUG fidelity -24, CSC inhib -7 and MT1-MMP act inh RFP 5.
O=C(Cn1cc(C=C2C(=O)NC(=O)NC2=O)c2ccccc21)NCC1CCCO1 (stereo not drawn) was read as eIF4H FP inh inconclusive, Rce1 inh inactive, MT1-MMP act inh 1, PABP FP inh inconclusive, UUG fidelity -18, HIV Env fusion 1, CSC inhib -7 and MT1-MMP act inh RFP 1.
`O=c1c2ccccc2nc(/C=C/c2ccccc2)n1-c1ccccc1O` gave eIF4H FP inh 0, Rce1 inh inactive, MT1-MMP act inh -10, PABP FP inh -6, UUG fidelity -4, HIV Env fusion 20, CSC inhib 90* and MT1-MMP act inh RFP -10.
`O=C1CN=C(c2ccccc2)c2c(sc3c2CCCC3)N1` gave eIF4H FP inh -6, Rce1 inh inactive, MT1-MMP act inh -2, PABP FP inh 2, UUG fidelity -22, HIV Env fusion -4, CSC inhib 18 and MT1-MMP act inh RFP -1.
For N#Cc1cc2c(nc1SCC(=O)Nc1ccc(Cl)cc1)C1CCN2CC1 the results were eIF4H FP inh 3, Rce1 inh inactive, MT1-MMP act inh -13, PABP FP inh 0, UUG fidelity -1, CSC inhib -5 and MT1-MMP act inh RFP -16.
`O=c1[nH]c(=O)n(CCC2=CCCCC2)c(O)c1/C=N/N1CCOCC1` gave eIF4H FP inh 5, Rce1 inh inactive, MT1-MMP act inh 0, PABP FP inh -14, HIV Env fusion 2, CSC inhib 2 and MT1-MMP act inh RFP 0.
CP(=O)(Nc1ccccc1)C(Cl)(Cl)Cl (stereo not drawn) was read as eIF4H FP inh -3, Rce1 inh inactive, MT1-MMP act inh 7, PABP FP inh 31, HIV Env fusion -11, CSC inhib -8 and MT1-MMP act inh RFP 4.
Screening Clc1ccc2nc3c(c(-c4ccccc4)c2c1)CNCC3 returned eIF4H FP inh 8, Rce1 inh inactive, MT1-MMP act inh -4, PABP FP inh 0, HIV Env fusion 7, CSC inhib -2 and MT1-MMP act inh RFP -4.
CCOc1ccc(N2C(=O)/C(=C\c3cccs3)C(=O)NC2=S)cc1 was read as eIF4H FP inh 1, Rce1 inh inactive, PABP FP inh 6, HIV Env fusion 28 and CSC inhib 8.
`Cc1sc2ncn(CC(=O)N3CCC4(CC3)OCCO4)c(=O)c2c1C` gave eIF4H FP inh -3, Rce1 inh inactive, MT1-MMP act inh 3, PABP FP inh -3, CSC inhib 6 and MT1-MMP act inh RFP 3.
Screening NS(=O)(=O)c1ccc(N2CCNCC2)cc1 returned eIF4H FP inh 6, Rce1 inh inactive, MT1-MMP act inh -6, PABP FP inh -4, UUG fidelity -9, HIV Env fusion 8, CSC inhib -8 and MT1-MMP act inh RFP -3.
C[C@]12CCC3C(CC[C@H]4C[C@@H](O)CC[C@]34C)C1C[C@H](Br)[C@@H]2O (stereo partly drawn) was read as MT1-MMP act inh 9, UUG fidelity -5, HIV Env fusion -23, CSC inhib 19 and MT1-MMP act inh RFP 1.
Cc1ccsc1C(=O)C1CCCN(CCO)C1 (stereo not drawn) was read as eIF4H FP inh -5, Rce1 inh inactive, MT1-MMP act inh -11, PABP FP inh -12, HIV Env fusion -1, CSC inhib -15 and MT1-MMP act inh RFP -1.
For O=C1NC(=O)C(=Cc2ccc(N3CCN(C(=O)c4ccccc4)CC3)c([N+](=O)[O-])c2)C(=O)N1 the results were eIF4H FP inh 0, Rce1 inh inactive, PABP FP inh -6, HIV Env fusion -6 and CSC inhib -7.
For CC(=O)NCC1=C(c2ccc3ccccc3c2)C[C@@H]2CC[C@H]1N2Cc1ccco1 the results were MT1-MMP act inh 0, UUG fidelity 3, HIV Env fusion -4 and MT1-MMP act inh RFP 3.
For CC(C)C[C@H]1C(=O)N2CCC[C@H]2[C@]2(O)O[C@](NC(=O)[C@@H]3C=C4c5cccc6[nH]cc(c56)C[C@H]4N(C)C3)(C(C)C)C(=O)N12 the results were MT1-MMP act inh -44, UUG fidelity -4, CSC inhib -6 and MT1-MMP act inh RFP 12.
O=[N+]([O-])c1cccc(CCl)c1 was read as MT1-MMP act inh -1, UUG fidelity -16, CSC inhib -1 and MT1-MMP act inh RFP 6.
`COC(=O)C1=C(c2cccc(C#N)c2)C[C@@H]2CC[C@H]1N2C(=O)NCC1CC1` gave MT1-MMP act inh -2, UUG fidelity -7, HIV Env fusion -4, CSC inhib -1 and MT1-MMP act inh RFP 1.
